KCNQ2 enhance = potentiators of rat KCNQ2 potassium channel. 310,000 tested, 0.54% active. B-score at 10 µM. AID 2239. CHO-K1 KCNQ2, FluxOR thallium flux fluorescence; active compounds read high;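 active means fluorescence ratio B-score at least 3 SD of library B-scores, with initial fluorescence B-score within 3 SD, cut at about 5.3 in these data; same plate scores as AID 2156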;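 further: B-score of peak minus minimum over baseline fluorescence ratio after K+ and Tl+ stimulus; positive B-score means potentiation of KCNQ2 with more thallium influx and brighter signal; only the inactives scoring about 0 or higher are listed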
Target sequence (O88943 whole entry, looked up): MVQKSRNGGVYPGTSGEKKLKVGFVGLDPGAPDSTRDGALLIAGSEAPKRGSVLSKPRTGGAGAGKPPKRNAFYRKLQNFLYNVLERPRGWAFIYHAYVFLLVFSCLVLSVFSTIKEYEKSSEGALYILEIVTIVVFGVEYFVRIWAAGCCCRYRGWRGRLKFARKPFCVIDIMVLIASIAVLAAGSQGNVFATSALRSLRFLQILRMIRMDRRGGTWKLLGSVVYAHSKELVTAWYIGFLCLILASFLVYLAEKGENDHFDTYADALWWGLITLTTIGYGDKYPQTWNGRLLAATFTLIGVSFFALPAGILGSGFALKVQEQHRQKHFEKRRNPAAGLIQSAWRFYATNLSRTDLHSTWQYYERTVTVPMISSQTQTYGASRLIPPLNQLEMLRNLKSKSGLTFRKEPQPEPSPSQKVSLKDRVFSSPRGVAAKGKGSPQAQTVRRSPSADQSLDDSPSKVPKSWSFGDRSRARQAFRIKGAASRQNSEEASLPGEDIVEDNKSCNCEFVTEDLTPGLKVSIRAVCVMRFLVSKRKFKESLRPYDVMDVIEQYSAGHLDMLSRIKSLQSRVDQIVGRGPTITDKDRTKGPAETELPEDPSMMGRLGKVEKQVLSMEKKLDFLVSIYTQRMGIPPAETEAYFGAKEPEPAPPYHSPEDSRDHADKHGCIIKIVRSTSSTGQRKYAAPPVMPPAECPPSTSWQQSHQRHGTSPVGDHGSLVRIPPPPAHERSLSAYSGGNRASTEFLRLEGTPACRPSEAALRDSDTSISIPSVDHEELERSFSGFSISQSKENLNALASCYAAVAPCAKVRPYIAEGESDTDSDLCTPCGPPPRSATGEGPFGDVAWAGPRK
KCNQ2 enhance baseline = second read-out of KCNQ2 enhance, no call of its own (marks repeat the call); B-score; compound at 10 µM; measured here: initial fluorescence intensity artifact check;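 brightness before thallium and not channel activity; 0 = typical well and far values either way flag optical interference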
Active calls of the source: *. This is a subset. The share of hits here may be higher or lower than overall.

SMILES	KCNQ2 enhance	KCNQ2 enhance baseline
Cc1nn(Cc2ccc(C(=O)NC(C)(C)C)o2)c(C)c1Br	1	1.94
COC(=O)c1cccc(NS(=O)(=O)c2cccs2)c1C	0.15	4.63
COc1ccc(-c2[nH]ncc2CN2CCC(c3ccncc3)CC2)cc1F	0.25	-1.31
Cn1cnnc1SCC(=O)c1ccc2c(c1)OCCO2	0.79	-0.02
Cc1ccc(-c2cccc(CN3CCN(C(C)C)C(CCO)C3)c2)o1 (centres undefined)	1.56	2.08
O=C1C2C(c3ccccc3)CC=CC2[C@H](c2cccc([N+](=O)[O-])c2)N1Cc1ccccc1 (some centres undefined)	0.01	2.07
Cc1ccc2c(cnn2C(=O)CCC(=O)N2CCCCC2)c1	0.51	0.1
CC(OC(=O)c1ccc2ncsc2c1)C(=O)N1CCCC1 (centres undefined)	1.15	-0.24
COc1ccc(/C=N/n2cnc3scc(-c4cccs4)c3c2=O)cc1OC	0.94	0.19
CCc1ccc(NC(=O)CNC(=O)c2nn(-c3ccc(OC)cc3)c(=O)c3ccccc23)cc1	0.03	-1.67
Cc1ccc(S(=O)(=O)N2CCOC2CNC(=O)C(=O)NCc2ccccn2)cc1 (centres undefined)	0.8	-3.76
COc1ccc(-c2cccc(C(=O)Nc3ccc(C)cc3)c2)cc1	1.46	-1.17
O=c1oc2cc(S(=O)(=O)NCCCO)ccc2c2ccc(S(=O)(=O)NCCCO)cc12	0.68	0.87
NC(=O)c1cc2ccncc2c2ccccc12	0.81	0.65
CC(Oc1ccc2c3c(c(=O)oc2c1)CCC3)C(=O)NCc1cccnc1 (centres undefined)	0.43	0.01
Cc1cc(Cl)ccc1OC(C)C(=O)NNC(=O)C1CCCCC1C(=O)O (centres undefined)	1.26	-0.78
Cn1nc(/C=C/c2ccccc2)ccc1=O	0.03	-0.23
COc1ccc(CN2CCN(C(=O)CCC(=O)Nc3nnc(C(F)(F)F)s3)CC2)cc1F	1.62	0.55
Cc1ccc2nc(C)c(C(=O)O)cc2c1	1.26	-0.58
Cc1ccc(-n2c(SCC(=O)NCc3ccco3)nc3sc4c(c3c2=O)CC(C)(C)SC4)cc1	0.37	-2.64
Cc1nn(Cc2ccc(Cl)cc2)c(C)c1NC(=O)Cn1nc([N+](=O)[O-])c(Cl)c1C	0.01	-0.78
CC(C)C(=O)N1CCC2(CC1)Oc1ccc(F)cc1C(=O)C21CC(c2cccnc2)=NO1 (centres undefined)	1.22	-0.03
Cc1nc(N)sc1C(=O)OCC(C)C	2.92	-0.2
O=C(OCC(=O)N1CCN(C(=O)c2ccco2)CC1)c1cccc(O)c1	0.08	-0.86

The list goes on, overlapping the part above by 2 compounds.
SMILES	KCNQ2 enhance	KCNQ2 enhance baseline
Cc1nc(N)sc1C(=O)OCC(C)C	2.92	-0.2
O=C(OCC(=O)N1CCN(C(=O)c2ccco2)CC1)c1cccc(O)c1	0.08	-0.86
COc1ccc(N=C2C(=O)N3CCCc4cccc2c43)cc1	0.84	-0.71
Cn1cc(Br)c(C(=O)Nc2sc3c(c2C(N)=O)CCCC3)n1	1.88	0.19
CCN(CCn1cccn1)Cc1nc(-c2ccc(C(=O)OC)cc2)no1	0.24	-1.61
CCCn1c(SCC(=O)N2N=C3/C(=C/c4ccc(OC)cc4)CCCC3C2c2ccc(OC)cc2)n[nH]c1=O (centres undefined)	0.1	-1.51
Cc1cc(C)c(C#N)c(Oc2ccccc2Br)n1	0.14	0.89
CC(C)C(=O)Nc1ccc(NC(=S)NC(=O)c2ccc([N+](=O)[O-])cc2)cc1	0.34	-0.99
CCN(CC)c1ccc(CNc2nnnn2C)cc1	0.57	0.9
CC(=O)N1N=C(C)CC1c1ccc(OCc2ccccc2)cc1 (centres undefined)	0.17	-0.3
CCN(Cc1ccccc1)C(=O)Cn1c(=O)n(CC(=O)NCc2ccco2)c(=O)c2sccc21	1.54	-0.06
O=C(Nc1ccc(Cl)cn1)c1ccc(COCC(F)(F)C(F)F)o1	1.14	0.01
Cc1cc(Br)ccc1NC(=O)c1ccccc1-c1ccccc1	0.03	-2.42
O=C(CCc1nc(-c2ccccc2)no1)NC1CCCCC1	1	-0.41

Of the compounds above, four have two or more sulfur atoms.
SMILES	KCNQ2 enhance	KCNQ2 enhance baseline
COC(=O)c1cccc(NS(=O)(=O)c2cccs2)c1C	0.15	4.63
COc1ccc(/C=N/n2cnc3scc(-c4cccs4)c3c2=O)cc1OC	0.94	0.19
O=c1oc2cc(S(=O)(=O)NCCCO)ccc2c2ccc(S(=O)(=O)NCCCO)cc12	0.68	0.87
Cc1ccc(-n2c(SCC(=O)NCc3ccco3)nc3sc4c(c3c2=O)CC(C)(C)SC4)cc1	0.37	-2.64

New compounds follow:
SMILES	KCNQ2 enhance	KCNQ2 enhance baseline
COc1cc(C2Nc3ccccc3C(=O)N2c2ccc(Cl)cc2)c(Cl)cc1OCC(=O)O (centres undefined)	1.4	-0.94
O=C(OCCN1C(=O)c2ccccc2C1=O)C1CCN(S(=O)(=O)c2cccs2)CC1	0.1	-0.66
CCOC(=O)C1CCCN(C(=O)c2ccc(C)c([N+](=O)[O-])c2)C1 (centres undefined)	0.84	1.32
CC(=O)Nc1ccc(Sc2ncccc2C(=O)Nc2cc(Cl)cc(Cl)c2)cn1	1.07	-0.82
NC(=O)C(=O)NCCCN1CCOCC1	0.55	1.76
Cc1cccc(Nc2ccccc2C(=O)OCC(=O)N(C)C2CCS(=O)(=O)C2)c1C (centres undefined)	1.08	0.06
O=C(NNC(=S)NCc1ccco1)c1ccc(S(=O)(=O)N2CCOCC2)cc1	0.36	-1.19
CCOc1cc(C2C(C#N)=C(N)Oc3n[nH]c(C)c32)ccc1OCCN1CCOCC1 (centres undefined)	0.59	-0.49
CC/C(=N\NC(=O)CSCc1ccccc1Br)c1ccc2c(c1)OCCO2	0.46	-0.22
CCOC(=O)N1CCN(C(=O)CSC2=NS(=O)(=O)c3cc(Cl)ccc3N2)CC1	0.22	2.03
NS(=O)(=O)c1ccc(NC(=O)c2cc(Cl)sc2Cl)cc1	1.02	0.17
COc1cc(C2Nc3cccc4cccc(c34)N2)ccc1OC(C)=O	0.17	2.48
O=C(NCCc1ccccc1)C(=O)N/N=C/c1ccc2c(c1)OCO2	0.57	-0.01
Cc1cc(C(=O)COc2ccc3ccc(=O)oc3c2)c(C)n1Cc1cccs1	0.7	-1.26
O=[N+]([O-])c1cc(/C=N\Nc2nc(-c3ccccc3)cs2)ccc1O	1.15	0.48
CC#CC(=O)N1CCC(Oc2cccc(C(=O)NCc3ccccn3)c2)CC1	0.23	1.92
O=C(CN(C(=O)CSc1nnc(COc2ccccc2)o1)c1ccc(F)cc1)NC1CCCCC1	0.28	1.42
Clc1nnc(Cl)c2c1ncn2Cc1ccccc1	1.87	-0.1
O=C(COc1cc2oc(=O)c3c(c2cc1Cl)CCC3)NCCN1CCOCC1	1.61	-0.38
CC1(C)CC(N2CCN(Cc3ccccc3)CC2)=CC(=[N+]2CCCCC2)C1	0.14	-0.86
NC(=O)C1=C[C@H](c2coc3ccccc3c2=O)C[C@H](OCc2ccc(CO)cc2)O1	1.69	-0.81
CCOc1ccc(NS(=O)(=O)c2coc(C(N)=O)c2)cc1	0.07	0.94
Cc1ccc(OCC(=O)Nc2ccc(S(=O)(=O)N3CCN(C)CC3)cc2)cc1	0.4	-1.03
COc1ccc(NC(=O)NCCCN2CCN(c3cc(C)ccc3C)CC2)cc1	0.45	2.06
CCOC(=O)Cn1cnc2scc(-c3ccc(C)c(C)c3)c2c1=O	2.97	0.13
COc1ccc(C(=O)OCC(=O)C(C)(C)C)cc1S(=O)(=O)N(C)CCc1cccnc1	0.22	1.24
Cn1ncc(C(=O)Nc2ccc(Cl)cc2)c1C(F)(F)F	1.27	-1.96
C=C(C)C(=O)OCC(=O)NCc1ccccc1	0.12	-0.88
O=P(O)(CCc1ccccn1)CN1CCCCC1	0.07	1.04
CC1CCN(c2cc(C#N)c(C#N)cc2[N+](=O)[O-])CC1	0.25	-0.28
Cc1nn(-c2cc(C)c3ccccc3n2)c2c1CCC2	1.51	0.31
O=C(CCC(F)(F)F)N1CCC(CO)(CCc2ccccc2)CC1	0.01	0.04
CCOC(=O)c1ccc(NC(=S)N2CCN(CCN=CC3=C(O)CC(c4ccccc4)CC3=O)CC2)cc1 (centres undefined)	0.21	1.41
CCC1CCCCN1Cc1c(O)ccc2c(=O)c(-c3ccccc3OC)coc12 (centres undefined)	1.56	-0.44
O=C(NCc1ccc(Cl)cc1)C1C2C=CC3(CN(Cc4cccnc4)C(=O)C13)O2 (centres undefined)	0.32	0.88
COc1ccc(C(=O)NCc2c(C)oc(C)c2C(=O)O)cc1	0.03	1.38
CCOc1cc(Cl)c(S(=O)(=O)NCc2cccnc2)cc1Cl	0.99	-1.38
Cc1nnc(SCC(=O)Nc2nccs2)[nH]c1=O	0.82	1.01
COc1ccc(C(=O)N2CCN(Cc3cn[nH]c3-c3ccc(OC)cc3F)CC2)cc1	0.09	-3.52
Cc1ccc(-c2nn(CC(=O)Nc3cccnc3)c(=O)c3ccccc23)cc1	0.62	1.83
O=C(NCc1ccco1)C(=S)N1CCCCC1	0.21	0.55
O=C(CCNC(=O)c1ccccc1Cl)Nc1nc(-c2ccc(F)cc2)cs1	1.09	-0.47
CCCNC(=O)C1CCN(S(=O)(=O)c2ccc3nc4c(c(C(=O)O)c3c2)CCCCC4)CC1	0.09	-1.64
O=C(Nc1ccc(F)cc1F)N1CCCN(c2ccc([N+](=O)[O-])cn2)CC1	0.27	-0.26
CCc1cc2c(NCC(=O)O)ncnc2s1	1.1	-1.46
COc1ccc(Cc2nnc(NC(=O)c3ccc(Cl)c([N+](=O)[O-])c3)s2)cc1	0.23	-0.8
CCCC(=O)n1nc(-c2cccnc2)nc1N	0.18	-0.36
Cc1cc(N/C=C2\CCCCC2=O)no1	0.13	-1.68
Cc1cc(C)n(Cc2ccc(C(=O)O)cc2)n1	0.45	0.87
COc1ccccc1/C=C/CN1CC(C)OC(C)C1 (centres undefined)	1.13	0.4
Cc1cc2cc(CCNS(C)(=O)=O)c(=O)[nH]c2cc1C	0.68	-0.92
CP(=O)(COC(=O)c1ccccc1)COC(=O)c1ccccc1	0.01	0.5
Cc1ccc(S(=O)(=O)N2CCC(Oc3ccc(-n4cnnn4)cc3)CC2)cc1	0.39	-1.42
CCOC(=O)N1CCN(C(=O)Cn2ccc3c(OC)cccc3c2=O)CC1	0.23	-0.26
CCOc1ccccc1C(=O)N(CN1CCCC1=O)c1ccc(C)c(Cl)c1	1.55	-0.45
COCCNc1nc(N)c([N+](=O)[O-])c(NCCO)n1	2.83	1.99
Cc1nn(C)c(C)c1NC(=O)CSc1nnc(C)n1-c1ccccc1	0.79	0.01
CSCCC(NC(=O)COc1ccccc1)C(=O)O (centres undefined)	0.71	0.01
CN(C)c1cccc2c1c(NC(=O)c1ccc(F)cc1)nn2C	4.56	-1.15
O=C(COc1ccc(S(=O)(=O)N2CCOCC2)cc1)Nc1ccccc1F	0.68	1.33

Three compounds from above, sorted by molecular weight, high to low.
SMILES	KCNQ2 enhance	KCNQ2 enhance baseline
O=C(COc1ccc(S(=O)(=O)N2CCOCC2)cc1)Nc1ccccc1F	0.68	1.33
CN(C)c1cccc2c1c(NC(=O)c1ccc(F)cc1)nn2C	4.56	-1.15
COCCNc1nc(N)c([N+](=O)[O-])c(NCCO)n1	2.83	1.99

Structures listed so far that have a tert-butyl group, in the order listed:
SMILES	KCNQ2 enhance	KCNQ2 enhance baseline
Cc1nn(Cc2ccc(C(=O)NC(C)(C)C)o2)c(C)c1Br	1	1.94
COc1ccc(C(=O)OCC(=O)C(C)(C)C)cc1S(=O)(=O)N(C)CCc1cccnc1	0.22	1.24

The list goes on:
SMILES	KCNQ2 enhance	KCNQ2 enhance baseline
COc1ccc(C)cc1NC(=O)NNS(=O)(=O)c1ccc(NC(C)=O)cc1	0.69	-0.19
CCC(CCC(=O)NNC(=O)Cc1ccc([N+](=O)[O-])cc1)C(=O)O (centres undefined)	0.07	2
CCCC(C)C(=O)OCC(=O)Nc1c(Br)cc(C)cc1Br (centres undefined)	4.72	-1.15
COc1ccc(-c2[nH]ncc2CNCCCSC)cc1F	1.24	-0.12
CN(C)/C=C/C(=O)c1nn(-c2ccc(F)cc2)ccc1=O	1.37	0.21
CSC(=NC#N)N1CCN(c2ccccc2)CC1	0.93	-0.09
Cc1cc(OCCN2CCCCCC2)ccc1[N+](=O)[O-]	0.98	0.86
O=C(CCCC(=O)NC1CCCC1)NC1CCCC1	1.31	0.16
CCOC(=O)c1ccc(NC(=O)N2CCN(C3CCCCC3)CC2)cc1	0.7	0.12
Cc1nnc(NC(=O)c2cc(S(=O)(=O)N3CCCCC3)ccc2Cl)s1	0.26	0.1
N=c1c(C(=O)NCCN2CCOCC2)cc2c(=O)n3ccccc3nc2n1Cc1ccc(F)cc1	0.83	-0.98
O=C(c1cccc2ccccc12)N1CCN(c2ccc([N+](=O)[O-])c(NCc3ccco3)c2)CC1	2.27	0.22
CC1(C)Cc2c(sc3nc(NCCN4CCOCC4)n4ncnc4c23)CO1	1.35	-3.11
O=C(CN1CCC(Cc2ccccc2)CC1)Nc1ccc2c(c1)OCCO2	5.47*	-1.6*
O=C(CCC(=O)N1CCOc2ccccc21)N1CCN(c2ccccc2)CC1	0.8	1.77
Cc1cc(C)n(CCOc2nonc2N)n1	0.42	-0.31
CC(C)NCc1nnc(-c2ccc(Cl)cc2)o1	0.26	1.23
N#Cc1c(NC(=O)CCC(=O)O)sc2c1CCCCC2	1.5	0.52
O=C(Nc1ccc(Cl)cc1)Nn1cnc2ccccc2c1=O	0.57	-0.28
CC(C)C[C@H](NC(=O)c1nc[nH]c1C(=O)N1CCC(C)CC1)C(=O)OCc1ccccc1	0.87	-1.01
COc1ccc(-n2c(SCC3CNC(=O)O3)nnc2-c2ccc(Cl)cc2)cc1 (centres undefined)	0.06	0.87
CCOC(=O)Cc1csc(NC(=O)CCC(=O)O)n1	0.26	-0.67
COC(=O)c1cc(C#N)c(Oc2ccc(F)cc2)nc1C	0.03	0.19
COCc1cc(C)nc(N2CCN(c3ccccc3)CC2)c1C#N	1.09	-0.56
O=C(O)CCN1C(=O)CC2(CCCCC2)C1=O	1.56	-2.79

Screening data: PubChem, Johns Hopkins Ion Channel Center
